# VDR inhibitor: Inhibitors of the vitamin D receptor (VDR): qHTS; Potency, µM, for inactives: max response, negative = inhibition, most hits filed as inhibitors; VDR-SRC2-3 peptide fluorescence polarization, 2 h; actives 0.93% (n = 400,000); Vitamin D3 receptor (Homo sapiens), P11473; active = well fitted inhibition curve with a large enough effect; inconclusive = small, poorly fitted or top-dose-only effect, or another doubt; inactive = no such curve, though single readings can be large or run the other way; note: series mostly up to about 120 µM
# Target sequence (P11473 whole entry, looked up): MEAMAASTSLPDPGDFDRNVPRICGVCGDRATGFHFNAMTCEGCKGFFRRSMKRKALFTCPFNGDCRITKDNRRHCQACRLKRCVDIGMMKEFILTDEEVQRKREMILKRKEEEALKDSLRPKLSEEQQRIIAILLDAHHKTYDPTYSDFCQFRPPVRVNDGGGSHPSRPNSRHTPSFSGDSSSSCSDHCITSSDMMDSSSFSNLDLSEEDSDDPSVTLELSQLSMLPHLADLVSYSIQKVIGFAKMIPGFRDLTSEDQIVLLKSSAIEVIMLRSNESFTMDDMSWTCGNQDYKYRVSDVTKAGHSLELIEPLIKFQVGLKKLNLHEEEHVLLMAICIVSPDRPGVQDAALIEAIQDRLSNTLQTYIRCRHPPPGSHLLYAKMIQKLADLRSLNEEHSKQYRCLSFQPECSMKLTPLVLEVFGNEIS
#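 Two reagent solutions held at 4 deg C in the dark were dispensed, compounds pinned at 23 nl, and the mixture incubated 2 h at room temperature. Read-out: fluorescence polarization of VDR–SRC2-3 peptide binding.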
# * marks the source's active call; other numbers are inactive results; ? = inconclusive; & = joins results of further samples; [ ] = another dose, or the depositor's remark. % is set by controls: 0 for no effect and ±100 for the full control effect; potency is the fitted concentration of half-maximal effect. Only part of the results is shown (hit frequency here may not be typical).
SMILES | VDR inhibitor
Cc1ccc(OCCSc2nc3ncnc(N)c3[nH]2)cc1 | ?
Cc1ccccc1N1CCN(CC(=O)Nc2nccs2)CC1 | -9%
C/C(=N\NC(=O)COc1ccc([N+](=O)[O-])cc1)C(C)(C)C | 4%
O=C(NCC1CCCO1)c1cccc(-n2cnnn2)c1 (configuration not stated) | -10%
CCC(NC(=O)c1ccccc1NC(=O)c1ccco1)C(=O)NNC(=O)c1ccc(OC)cc1 (configuration not stated) | -4%
Cc1c(CCOC(=O)c2ccc(N3CCOCC3)c([N+](=O)[O-])c2)sc[n+]1CC#N | -9%
CSc1cccc(NC(=O)c2cnn3ccccc23)c1 | -2%
CCCCn1c(N)c(Br)c(=O)[nH]c1=O | -13%
CC(C)(CN1CCCC1)NC(=O)C1CCC(=O)N(CCCN2CCOCC2)C1 (configuration not stated) | -6%
Cc1ccc(C(=O)NCC(=O)OCC(=O)c2cc(C)n(Cc3ccco3)c2C)cc1 | -8%
COc1ccc(NC(=O)C2CCCN2S(=O)(=O)c2ccc(C)cc2)cc1 (configuration not stated) | -16%
O=C(NCC(c1cccs1)N1CCOCC1)C1CCN(S(=O)(=O)c2c(Cl)cccc2Cl)CC1 (configuration not stated) | -13%
Cc1ccc(N(CC(C)C)S(=O)(=O)c2nnc(NC(=O)c3ccco3)s2)cc1 | -2%
COc1ccc2c(c1)CCCC21SC(NC(C)=O)=NN1C(C)=O (configuration not stated) | -8%
Cc1noc(C)c1COC(=O)COc1ccc2c(C)cc(=O)oc2c1 | 5%
Cn1cc(C(=O)C(=O)N2CCCCC2)c2ccccc21 | -17%
Cc1cc(C)n(C(=O)c2ccc([N+](=O)[O-])cc2[N+](=O)[O-])n1 | -20%
Cc1ccc(NC(=O)COC(=O)CN2CCCCCC2=O)cc1C | 1%
Cc1cnc(CNc2nc(-c3ccccc3C(F)(F)F)nc3ccccc23)cn1 | -12%
O=C(COC(=O)C1(c2ccccc2F)CCCC1)N1CCN(C(=O)c2ccco2)CC1 | 1%

# Structures shown so far that have a halogen, in the order listed:
SMILES | VDR inhibitor
CCCCn1c(N)c(Br)c(=O)[nH]c1=O | -13%
O=C(NCC(c1cccs1)N1CCOCC1)C1CCN(S(=O)(=O)c2c(Cl)cccc2Cl)CC1 (configuration not stated) | -13%
Cc1cnc(CNc2nc(-c3ccccc3C(F)(F)F)nc3ccccc23)cn1 | -12%
O=C(COC(=O)C1(c2ccccc2F)CCCC1)N1CCN(C(=O)c2ccco2)CC1 | 1%

# (list continues)
SMILES | VDR inhibitor
CCOC(=O)N1CCC(N2C(=O)c3ccccc3C2Nc2ccc(Cl)cn2)CC1 (configuration not stated) | 1%
Cc1ccccc1NS(=O)(=O)c1ccc(OCC(=O)NCc2cccnc2)cc1 | 4%
CCOC(=O)C1=C(C)N(c2ccccc2)C(=O)NC1c1cccc([N+](=O)[O-])c1 (configuration not stated) | -1%
COC(=O)c1ccccc1NC(=O)c1nc2nc(C)cc(C(F)F)n2n1 | -12%
CCOC(=O)c1c(NC(=O)CN2C(=O)NC(C)(c3ccc(OC(F)F)cc3)C2=O)sc(C)c1C (configuration not stated) | -1%
CC1(C)Oc2cc3oc(-c4cc(O)cc(O)c4)cc3cc2CC1O (configuration not stated) | -17%
O=C(Nc1ccc(Oc2cccnc2)cc1)C1CCN(Cc2cccc(Cl)c2)CC1 | 8%
COc1ccccc1CNC(=O)c1ccc(CS(=O)(=O)c2ccccc2OC)o1 | -9%
N#CC1=C(N)Oc2n[nH]c(-c3ccc(F)cc3)c2C1c1cccc(OC(=O)N2CCOCC2)c1 (configuration not stated) | 3%
O=C(Cc1c(F)cccc1Cl)N1CCN(S(=O)(=O)c2cccc(F)c2)CC1 | 16%
Cc1c(C(=O)O)oc2ccc(S(=O)(=O)NCc3ccc(F)cc3)cc12 | -12%
Cc1ccc(CNC(=O)CO/N=C/c2ccc(C(C)(C)C)cc2)cc1 | 2%
Cc1ncc(N=Nc2ccccc2Cl)c(-c2ccccc2)n1 | 2%
Cc1c(NC(=O)CSc2nc3c(cnn3-c3ccccc3)c(=O)[nH]2)c(=O)n(-c2ccccc2)n1C | 0%
Cc1ccc(NC(=O)CCc2nc3cccnc3n2-c2ccccc2)cc1 | -18%
CCC(C(=O)Nc1cc(Cl)c(OC)cc1OC)c1ccccc1 (configuration not stated) | 3%
COc1cccc(C(O)Cc2nc3ccccc3n2C)c1OC (configuration not stated) | 0%
Cn1cc(S(=O)(=O)N2CCCC2)cc1C(=O)Nc1ccc(F)cc1F | 9%
O=C(COc1cc(F)ccc1[N+](=O)[O-])Nc1ccc(N2CCOCC2)cc1 | 21%
CCn1c(SCC(=O)N2CCN(C)CC2)nc2c1c(=O)n(C)c(=O)n2C | 18%
Cc1ccc(Nc2nc(CSc3nnnn3-c3ccccc3)cs2)cc1 | -4%
CCOc1ccc(N(CC(=O)Nc2c(C)cccc2C)S(=O)(=O)c2c(C)[nH]c(=O)[nH]c2=O)cc1 | -3%
CCNC(=O)CSc1nc2sccc2c(=O)n1-c1ccccc1 | -10%
COc1ccc(OC)c(NC(=O)CSC2=Nc3ccccc3C3=NC(CC(=O)NCCc4ccccc4)C(=O)N23)c1 (configuration not stated) | -2%
COc1ccc(CNC(=O)[C@H](C)NC(=O)C2CC(=O)N(c3ccc4c(c3)OCO4)C2)cc1 (some centres not stated) | 5%
Clc1cccc(CSc2nccn2-c2ccccc2)c1 | -14%
COc1c(Cl)cc(C(=O)N(Cc2ccc(C)o2)C2CCS(=O)(=O)C2)cc1Cl (configuration not stated) | 8%
COc1ccccc1CNCCS(=O)(=O)NCc1ccccc1 | -22%
Cc1ccc(C(=O)Nc2ccccc2C(=O)N2CCCC(C)C2)cc1 (configuration not stated) | -10%
Cc1cc(CNC(=O)C2(C(F)(F)F)C/C(=C\CCO)CCCO2)nn1C (configuration not stated) | 14%&-5%
Cc1ccc(S(=O)(=O)NCC2(c3ccccc3)CCN(C)CC2)cc1 | 34%[activator]
CCOC(=O)N1CCN(c2cc3[nH]c(=S)[nH]c3cc2F)CC1 | -14%
CCOc1ccc(S(=O)(=O)N2CCOCC2)cc1NC(=O)CSCC(=O)Nc1cccc(C)c1 | -7%
CN(NC(=O)c1ccccc1)c1nc2ccccc2nc1C(F)(F)F | -3%
O=C(COc1cccc(C(F)(F)F)c1)N1CCN(c2ccc(O)cc2)CC1 | 8%
COc1ccc(C)cc1Nc1nc2c(S(=O)(=O)c3cc(C)ccc3C)nnn2c2ccsc12 | 2%
Cc1c(C(=O)N(C)CCc2cnn(C)c2)oc2c(F)cccc12 | -13%
CN1CCN(C(=O)C23CCC(C)(c4nc5ccccc5nc42)C3(C)C)CC1 (configuration not stated) | -7%
Cc1cccc(C)c1OCC(=O)N=Nc1c(O)[nH]c2ccc(Br)cc12 | 11%
Cc1ccccc1-n1ncc2c1CC(C)(C)CC2NC(=O)c1snnc1C (configuration not stated) | -15%

# Part of the list above, with each value named:
> Cc1ccc(NC(=O)COC(=O)CN2CCCCCC2=O)cc1C
  VDR inhibitor: 1%

> CC1(C)Oc2cc3oc(-c4cc(O)cc(O)c4)cc3cc2CC1O (configuration not stated)
  VDR inhibitor: -17%

> COc1ccc(NC(=O)C2CCCN2S(=O)(=O)c2ccc(C)cc2)cc1 (configuration not stated)
  VDR inhibitor: -16%

> O=C(Nc1ccc(Oc2cccnc2)cc1)C1CCN(Cc2cccc(Cl)c2)CC1
  VDR inhibitor: 8%

# (continued)
SMILES | VDR inhibitor
O=C(Nc1ccccc1F)C1CCN(S(=O)(=O)c2cccc3nonc23)CC1 | -7%
CO/N=C/C(C#N)c1ncc(C(F)(F)F)cc1Cl (configuration not stated) | 26%
COC(=O)c1ccc(NC(=O)C2CCCN2C(=O)Nc2cccc(C(C)=O)c2)cc1 (configuration not stated) | ?
NS(=O)(=O)c1ccc(NC(=O)COC(=O)CCC2CCCCC2)cc1 | -7%
CCOc1ccc(-n2c(=O)cc(N3CCN(c4ccccc4)CC3)[nH]c2=O)cc1 | -13%
O=C(NCCCN1CCOCC1)c1nn2c(C(F)(F)F)cc(-c3ccco3)nc2c1Cl | -27%
COc1cccc(-c2nc(CS(=O)(=O)CC(=O)NCCc3ccccc3)c(C)o2)c1 | 5%
C/C=C/C=N/Nc1nc(C)cc(=O)[nH]1 | -16%
O=C(COc1ccc(Cl)cc1Br)NCC(c1ccco1)N1CCCC1 (configuration not stated) | -11%
CCOC(=O)c1c(-c2ccc(OC)cc2)csc1NC(=O)CSc1nnc(C)c(=O)[nH]1 | -16%
COc1ccc(C(=O)Nc2cc(C)cc(C)c2)cc1S(=O)(=O)N1CCOCC1 | -18%
N#Cc1cnc(NOCc2ccc(Cl)cc2)nc1 | 3%
O=C(Nc1ccc(NC(=S)NC(=O)c2ccccc2Cl)cc1)c1cccc(Cl)c1 | -5%
Cc1[nH]c2ccc(-c3nnc(SCC(=O)c4ccccc4F)o3)cc2c1C | -6%
Cc1ccc(Nc2nc(CSc3n[nH]c(N)n3)cs2)cc1 | -2%
CCN(CC)CCCNC(=O)C(C)n1nc(C)c2sc3ccccc3c2c1=O (configuration not stated) | -1%
CCNc1nc(NCC)n2c(SCC(=O)Nc3ccc(F)cc3[N+](=O)[O-])nnc2n1 | -21%
CCC(C)NC(=O)c1cn(CCOC)c(=O)c2c1c1ccccc1n2C (configuration not stated) | -7%
O=C(CN1C(=O)c2ccccc2C1=O)OCC(=O)N1CCN(c2ccccc2)CC1 | -20%
O=C(C[n+]1ccncc1)c1ccccc1 | -10%
COn1c(=O)c(-c2cccc(Br)c2)[n+]([O-])c2ccccc21 | -4%
Cc1ccc(C)n1-c1ccccc1N1CCCCC1 | -16%
O=C(Cn1ccc2cc(S(=O)(=O)N3CCCCC3)ccc21)NCCc1ccc(Cl)cc1 | 10%
CCOc1ccc(C2=CC(c3ccccc3)n3ncnc3N2)cc1 (configuration not stated) | -1%
CCOc1ccc(-c2cn3c(n2)sc2cc(C(=O)NCCCN4CCCCCC4)ccc23)cc1 | -1%
COc1ccc(OC)c(N2CC(O)(c3ccccc3)[N+]3=C2SCCC3)c1 (configuration not stated) | -2%
O=C(Oc1cc2oc(=O)c3c(c2cc1Cl)CCCC3)c1ccco1 | -1%
Cc1cc(NC(=O)CSc2nncn2N)no1 | 33%[activator]
Cc1ccc2c(=O)c(C(=O)c3ccc(F)cc3)cn(CC(=O)NCc3ccccc3Cl)c2n1 | 6%
Cc1csc2ncc(C(=O)Nc3ccc(C(F)(F)F)cc3)c(=O)n12 | -2%
Cc1cccc(-n2c3nc(=O)n(C)c(=O)c-3cc3c(C)nn(-c4ccccc4)c32)c1C | -14%
CSc1ccc(CN(C)C(=O)CNC(=O)c2sc3ccccc3c2Cl)cc1 | 10%
CCc1ccc2[nH]c(=O)c(CN(CCN(C)C)C(=O)Nc3ccccc3OC)cc2c1 | -4%
CCC(C)NC(=S)Nc1ccc(F)cc1 (configuration not stated) | -6%
CCOC(=O)C1CCN(C(=O)COC(=O)c2nn(C)c(=O)c3ccccc23)CC1 | -8%
O=C(CSCc1ccc(Br)cc1)Nc1ccccc1C(=O)N1CCOCC1 | 10%
Cc1nc(N2CCCC2)ncc1C(=O)NCc1ccc(Cl)cc1 | 10%
COc1nc(Nc2ccc([N+](=O)[O-])cc2)nc(NC2CCCCC2)n1 | -8%
O=C(Cn1ccc2cc(S(=O)(=O)N3CCCCC3)ccc21)NCc1ccccc1Cl | 20%
O=S(=O)(Nc1ccncc1)c1ccc(Cl)cc1 | -11%
Cc1ccc(C(=O)N2C(=S)C(c3ccc(F)cc3)=NC23CCN(C)CC3)cc1 | ?
Cc1cc(C)nc(NC2=N[C@@H]3CCCC[C@H]3N2C(=O)Nc2cc(Cl)cc(Cl)c2)n1 | 5%
Clc1ccc(-c2csc(N/N=C/c3ccc4c(c3)OCO4)n2)cc1 | -6%
COc1ccc(S(=O)(=O)N2CCCN(CCC(=O)Nc3cccc(C(F)(F)F)c3)CC2)cc1 | 7%
CCc1nc(SCC(=O)N2CCC(C)CC2)c2c(=O)n(C)c(=O)n(C)c2n1 | -2%
CN1C(=S)SC(C)(NO)C1(C)C (configuration not stated) | ?
CCCCCCCCCCn1c2c(c(=N)c3c1CCC3)CCC2 | -24%
O=C(CSc1nnc(-c2ccco2)o1)Nc1ccccc1Cl | 13%
O=c1c(O[C@H]2O[C@@H](CO)[C@H](O)[C@@H](O)[C@@H]2O)c(-c2ccc(O)cc2)oc2cc(O)cc(O)c12 | -14%
Cc1ccc(C(=O)COC(=O)CNC(=O)c2cccs2)cc1 | 0%
CN1CC(=O)N(CC(=O)Nc2ccc(OCc3ccccc3)cc2)C1=O | -6%
c1ccc(-c2nn(-c3ccccc3)[n+](-c3ccccc3)n2)cc1 | -3%
CCCS(=O)(=O)N1CCC(C(=O)NCc2ccc3c(c2)OCO3)CC1 | 4%
CC(C)N(C(=O)[C@H]1CC(CC(=O)NC(C)(C)C)C(=O)N2CCc3c([nH]c4ccccc34)[C@]12C)C(C)C (some centres not stated) | -14%
Cc1ccc(NC(=O)CSCC(=O)Nc2cc(Cl)ccc2N2CCN(C)CC2)cc1 | -8%
CCN(C(=O)CSc1ncccc1C(=O)Oc1cccc([N+](=O)[O-])c1)c1cccc(C)c1 | -10%

# Screening results (PubChem)
